High-throughput results as filed in PubChem.
BJeLR viability: MLPCN primary cell-based screen for lethality selective to Ras in HRASV12 cells. BJeLR (HRASV12) viability, CellTiter-Glo ATP luminescence, 48 h; reference of the scale not given here. inhibition, % (concentration not given with the values). actives 0.17% (n = 300,000). AID 1554, 2009;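 active means replicate mean above 50%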;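 further: 50 nL library stock added to about 25 µL; numbers are from one replicate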
Mtb hypoxia rep: PubChem AID 1159583; fluorescence inhibition, % (concentration not given with the values); M. tuberculosis hypoxia-regulated fluorescent reporter, fluorescence; actives 0.1% (n = 300,000);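 active means 35 to 45% if threefold the growth effect, above 45% if 1.5-fold the growth effect; inactive means the rest, general growth blockers included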;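 further: wells of about 50 µL received 100 nL stock; 0% = vehicle wells and 100% = reference inhibitor wells; whole bacteria with a GFP reporter of the hypoxia response; strong numbers were not always called active; many hits fall short of the cut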
RN4220 kill: growth inhibition of S. aureus RN4220, primary screen, OD600. 16 h. AID 1259311, 2017. inhibition, % (test concentration not listed). actives 0.33% (n = 330,000);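 active means z-score of -3 or lower and OD600 up to 0.18 on both plates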;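 further: plate controls were untreated cells for no effect and reference antibiotic for full effect; stock transfer was 100 nL into about 80 µL; one replicate is shown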
Bead autofluor: counter-screen for toxin protease inhibitors: compound fluorescence. compound autofluorescence counterscreen, microsphere flow cytometry; stronger effect = higher value. fluorescence intensity (no concentration beside the values). actives 3.1% (n = 360,000). AID 624483;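 active means at least 3 SD above the mean of all compounds, about 16000 in these data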;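 further: 100 nL of 1 mM stock went into each well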
ugtP null kill: growth inhibition of ugtP-null S. aureus, primary screen, RN4220 ugtP deletion, OD600; 16 h; some inactives read as strong as hits; growth inhibition, % (test concentration not listed); actives 0.54% (n = 330,000); AID 1259309, 2017;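 active means z-score under -3 and OD600 up to 0.15 on both plates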;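 further: plate controls were untreated wells for no effect and antibiotic for full effect; wells of about 80 µL received 100 nL stock; the first replicate is given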
PrP 5UTR inh: inhibition of PrP 5' UTR reporter expression; cell-based PrP 5' UTR mRNA reporter, plate reader; inhibition, % (no concentration beside the values); actives 0.35% (n = 340,000); AID 488862, 2010;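 active means every replicate at 50% or more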;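 further: 0 = median of the neutral control wells; tested in H4 reporter cells; numbers are from one replicate; inactives centre near -14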
Mtb hypoxia rep growth: recorded beside Mtb hypoxia rep, whose call it bears; growth inhibition, %; measured here: M. tuberculosis growth (absorbance);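 0% = vehicle and 100% = reference antibiotic; read after six days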
An asterisk follows results filed as active; · = not tested or not shown.

SMILES | BJeLR viability | Mtb hypoxia rep | Mtb hypoxia rep growth | RN4220 kill | Bead autofluor | ugtP null kill | PrP 5UTR inh
COc1ccc(C(=O)NCC(=O)OCC(=O)N2CCN(S(=O)(=O)c3ccccc3)CC2)cc1 | 4 | 8 | 3 | -0.2 | 2022 | 9 | -7
Cc1ccc(OC(=O)c2cccc(S(=O)(=O)N3CCN(C)CC3)c2)c(Br)c1 | -17 | 2 | -8 | 3.1 | 4498 | 20 | -18
Cc1nc2c3cc(Cl)ccc3n(CCN3CCCCC3)c2s1 | 14 | 1 | 6 | 1.2 | 6265 | 3 | -44
COc1ccc(CN(C(=O)c2ccccc2Br)C2CCS(=O)(=O)C2)cc1 (configuration not stated) | 2 | 1 | 4 | 1.3 | 5715 | 0 | -12
O=C(N=c1ccn(-c2nc3ccccc3nc2NS(=O)(=O)c2ccc(Cl)cc2)cc1)c1ccccc1Cl | 1 | 4 | 9 | -3.9 | · | 28 | ·
O=[N+]([O-])c1cc(S(=O)(=O)Nc2cccc(Cl)c2)ccc1N=Nc1c(O)[nH]c2ccccc12 | 5 | 1 | 4 | 5.5 | 2024 | -10 | -16
CCOC(=O)c1ccc(NC(=O)COC)cc1 | -5 | -3 | 11 | 4.3 | 9164 | 6 | -6
Cc1cccc(NC(=S)NCc2ccco2)c1C | 5 | -5 | 8 | 6.2 | 2117 | -3 | -3
O=C(CN1CCN(Cc2ccccc2)CC1)Nc1ccccc1-c1ccccc1 | 0 | 19 | 14 | 4.2 | 3220 | 7 | -15
CC(=O)Nc1ccc(S(=O)(=O)NCCC(=O)OCC(=O)c2cc(C)ccc2C)cc1 | · | 2 | 4 | 1.8 | 5078 | 5 | -27

4 records drawn at random from those above, as already listed:
SMILES | BJeLR viability | Mtb hypoxia rep | Mtb hypoxia rep growth | RN4220 kill | Bead autofluor | ugtP null kill | PrP 5UTR inh
Cc1ccc(OC(=O)c2cccc(S(=O)(=O)N3CCN(C)CC3)c2)c(Br)c1 | -17 | 2 | -8 | 3.1 | 4498 | 20 | -18
COc1ccc(C(=O)NCC(=O)OCC(=O)N2CCN(S(=O)(=O)c3ccccc3)CC2)cc1 | 4 | 8 | 3 | -0.2 | 2022 | 9 | -7
CCOC(=O)c1ccc(NC(=O)COC)cc1 | -5 | -3 | 11 | 4.3 | 9164 | 6 | -6
COc1ccc(CN(C(=O)c2ccccc2Br)C2CCS(=O)(=O)C2)cc1 (configuration not stated) | 2 | 1 | 4 | 1.3 | 5715 | 0 | -12

More entries follow:
SMILES | BJeLR viability | Mtb hypoxia rep | Mtb hypoxia rep growth | RN4220 kill | Bead autofluor | ugtP null kill | PrP 5UTR inh
CCNC(=S)N1CCc2cc(OC)c(OC)cc2C1COc1ccc(F)cc1 (configuration not stated) | -1 | -2 | 1 | -2.4 | 3961 | -1 | -23
COc1cccc(/C=N/NC(=O)c2cc3cc([N+](=O)[O-])ccc3s2)c1O | 7 | · | · | · | 9529 | · | 18
COc1cc(S(=O)(=O)NCCOC23CC4CC(CC(C4)C2)C3)c(OC)cc1Cl | 0 | -4 | 0 | -1.3 | 2103 | -6 | -21
O=C(Oc1ccc(Cl)cc1)c1ccc2nccnc2c1 | 3 | · | · | -0.4 | 4033 | 8 | -18
CSc1nc2cc(Cl)ccc2s1 | -2 | 13 | 11 | 11 | 3873 | -1 | -15
O=C(Nc1ccc2c(c1)OCO2)c1ccc2nc[nH]c2c1 | -3 | · | · | -1.5 | 3861 | 6 | -45
CCCCn1c(N)c(N(CC(C)C)C(=O)C2=COCCO2)c(=O)[nH]c1=O | · | 6 | -12 | 5.3 | 6409 | 16 | -19
CC(=O)C1=C(O)C(=O)N(c2ccc(Br)cn2)C1c1ccc(F)cc1 (configuration not stated) | · | -2 | 0 | -0.6 | 1948 | 12 | -12
CC(=O)NC(C)(CC(=O)c1ccccc1)c1ccccc1 (configuration not stated) | -5 | -2 | 10 | 0.5 | 3552 | 2 | -19
Cc1ccc(S(=O)(=O)N2CCCCC2)cc1NC(=O)COC(=O)CN1C(=O)NC2(CC(C)CC(C)(C)C2)C1=O (configuration not stated) | · | 7 | 6 | -1.6 | 8939 | -5 | -11

Shown as a markdown table: 2 of the compounds above.
| mol | BJeLR viability | Mtb hypoxia rep | Mtb hypoxia rep growth | RN4220 kill | Bead autofluor | ugtP null kill | PrP 5UTR inh |
| --- | --- | --- | --- | --- | --- | --- | --- |
| CSc1nc2cc(Cl)ccc2s1 | -2 | 13 | 11 | 11 | 3873 | -1 | -15 |
| O=C(Nc1ccc2c(c1)OCO2)c1ccc2nc[nH]c2c1 | -3 | · | · | -1.5 | 3861 | 6 | -45 |

Next entries
SMILES | BJeLR viability | Mtb hypoxia rep | Mtb hypoxia rep growth | RN4220 kill | Bead autofluor | ugtP null kill | PrP 5UTR inh
CC(/C=N/n1c(-c2ccc(Cl)cc2)n[nH]c1=S)=C\c1ccco1 | -6 | · | · | · | 2243 | · | 0
COc1cc(C)c(Cl)c(C)c1S(=O)(=O)NC1CC(C)(C)NC(C)(C)C1 | -4 | 14 | 10 | 1.7 | 4232 | 0 | -8
O=C(O)c1ccc(Cl)c(S(=O)(=O)NCC2CCCO2)c1 (configuration not stated) | -4 | -9 | -7 | -4.5 | 5239 | -8 | -13
COc1ccc(S(=O)(=O)N(CC(=O)NCC2CCCO2)c2ccc(Cl)cc2)cc1 (configuration not stated) | -2 | -11 | 8 | -6.4 | 3644 | -6 | 3
COc1ccc(C(=O)Nc2ccc3[nH]ncc3c2)cc1 | -1 | 4 | 2 | 1.2 | 3554 | 8 | -34
O=C1NC(=O)C2(CCCC2)C(=O)N1 | · | 2 | 3 | 2.0 | 4011 | 0 | -26
Cc1cccc(NS(=O)(=O)c2ccc(C)c(C(=O)NC3CCN(Cc4ccccc4)CC3)c2)c1 | · | -2 | 5 | 0.2 | 30942* | 2 | -4
C=CCNC(=S)Nc1nc2c(cc1C(=O)OCC)CCCC2 | 23 | 10 | -3 | 5.9 | 2087 | 4 | -33
O=C(NCCN1CCN(c2ccccc2)CC1)Nc1ccccc1Cl | 4 | -2 | 4 | 2.2 | 3563 | 0 | -2
COc1ccc(Cl)cc1NC(=O)C(=O)NN=Cc1cc(C)n(-c2ccc(C)cc2)c1C | · | 5 | 2 | -1.2 | · | -18 | ·
CC(=O)N1CCN(c2ccc(NC(=S)NC(=O)c3ccccc3)cc2)CC1 | -2 | 9 | 13 | 0.0 | 9272 | 93* | -28
O=C(c1ccccc1F)N1CCC(N2CCCCCC2)CC1 | 8 | 5 | 13 | 2.7 | 6820 | -4 | -8
Cc1nc2ccccc2cc1C(=O)N/N=C/c1cccc([N+](=O)[O-])c1 | -13 | · | · | · | 2135 | · | -7
O=C(Nc1nnc(-c2ccc(Cl)cc2)o1)c1ccc(N2C(=O)CCC2=O)cc1 | 3 | 17 | 11 | 23 | 1985 | -5 | -28
CN(CC(=O)Nc1ccc(F)cc1Cl)Cc1cccs1 | 8 | 14 | -6 | 7.1 | 3687 | -6 | -22
COc1ccc(CCNCC(C)c2ccccc2)cc1 (configuration not stated) | -12 | 13 | 7 | 0.0 | 3528 | 6 | -21
Cc1ccc(-n2c(-c3ccc(Cl)cc3Cl)n[nH]c2=S)cc1 | 7 | 4 | -9 | 3.8 | 3902 | 5 | -22
NS(=O)(=O)c1ccc(NC(=O)c2cc(-c3cccs3)nc3ccccc23)cc1 | 63* | · | · | · | 2582 | · | -16
N#CC1(NC(=O)COC(=O)c2ncc(Cl)c(Cl)c2Cl)CCCCC1 | 12 | 2 | -7 | 3.0 | 4366 | 9 | -20
O=C(O)c1cc(S(=O)(=O)Nc2ccc(OCc3ccccc3)cc2)ccc1Br | -6 | 10 | 2 | 2.7 | 5549 | 5 | -9

Whole records, quoted from the list. Order of values: BJeLR viability, Mtb hypoxia rep, Mtb hypoxia rep growth, RN4220 kill, Bead autofluor, ugtP null kill, PrP 5UTR inh
`O=C(c1ccccc1F)N1CCC(N2CCCCCC2)CC1` as listed: 8, 5, 13, 2.7, 6820, -4, -8
`CN(CC(=O)Nc1ccc(F)cc1Cl)Cc1cccs1` as listed: 8, 14, -6, 7.1, 3687, -6, -22

Some values from the results shown:
Entry for `COc1cccc(/C=N/NC(=O)c2cc3cc([N+](=O)[O-])ccc3s2)c1O` under BJeLR viability: 7
Entry for `NS(=O)(=O)c1ccc(NC(=O)c2cc(-c3cccs3)nc3ccccc23)cc1` under PrP 5UTR inh: -16
Entry for `O=C(O)c1cc(S(=O)(=O)Nc2ccc(OCc3ccccc3)cc2)ccc1Br` under PrP 5UTR inh: -9

Further structures
SMILES | BJeLR viability | Mtb hypoxia rep | Mtb hypoxia rep growth | RN4220 kill | Bead autofluor | ugtP null kill | PrP 5UTR inh
O=C(NCCc1ccccn1)c1cccc(S(=O)(=O)N2CCCCCC2)c1 | 1 | 0 | 10 | 0.7 | 2879 | -6 | 0
Cc1cccc(C)c1NC(=O)NC1(C(=O)N2CCCCC2)CCCCC1 | 7 | -14 | -2 | 1.5 | 5194 | -1 | -27
C=CCOC(=O)C1=C(C)NC(=O)NC1c1ccc(O)cc1 (configuration not stated) | 0 | -4 | -7 | 2.8 | 3669 | -4 | -5
COc1ccc(N=C2S/C(=C\c3ccc(C)o3)C(=O)N2CC(C)C)cc1 | 0 | · | · | · | 3164 | · | -16
O=C(CSc1nc2[nH]ncc2c(=O)[nH]1)Nc1nccs1 | -4 | 8 | 8 | 1.3 | · | 3 | ·
Cc1oc(C(C)(C)C)cc1C(=O)Nc1cccc(C(=O)O)c1 | 11 | 6 | 1 | -0.9 | 11358 | 6 | -57
CCCOc1ccc(N2C(=O)CC(N3CC=C(c4ccccc4)CC3)C2=O)cc1 (configuration not stated) | -3 | -1 | 9 | 5.9 | 2356 | 4 | -19
Cn1c(N2CCOCC2)c(/C=N/O)c2ccccc21 | 1 | · | · | · | 2014 | · | -3
COc1ccc2c(=O)c3c(=O)n(-c4ccccc4)c(-c4ccc(C)cc4)nc3oc2c1 | -3 | 9 | 1 | 3.6 | 5738 | -22 | -29
Cc1ccnc(NC(=O)C2(c3cccs3)CCOCC2)c1 | -1 | -2 | -1 | 6.7 | 7467 | 11 | -20
CCCCSc1nnc([C@@H](NC(=O)OC(C)(C)C)C(C)C)o1 | 1 | -6 | 5 | 3.0 | 9423 | -3 | -13
COCCCNC(=O)CCn1c(=O)c2ccccc2n(CC(=O)Nc2c(C)cccc2C)c1=O | 4 | · | · | -4.0 | 4854 | -4 | -16
O=C(/C=C/c1ccccc1)Nc1scc(-c2ccccc2)c1C(=O)O | -1 | 5 | -4 | 8.4 | 4651 | -12 | -69
CCCn1c(=O)[nH]c(=O)c2c1nc(-c1ccc(C#N)cc1)n2CCOC | 9 | 2 | 1 | 0.0 | 5395 | 5 | -23
COc1cc(NC(=O)c2ccccc2F)ccc1NC(=O)c1cc2ccccc2o1 | 0 | · | · | · | 4151 | · | -14
COc1ccccc1Nc1nc(N)nc(CSC(=S)N2CCCCC2)n1 | 10 | 3 | -4 | 4.7 | 4163 | 5 | -26
CCCN(C(=O)c1cccc(S(=O)(=O)N2CCCc3ccccc32)c1)C1CCS(=O)(=O)C1 (configuration not stated) | · | 6 | -3 | 7.0 | 7814 | 10 | -15
Cc1ccc(NC(=O)CSc2n[nH]c(-c3ccncc3)n2)cc1 | -11 | 7 | 14 | 6.3 | 9648 | -4 | -34
Cn1ncc(Cl)c1C(=O)Nc1cccc(Cl)c1 | -2 | 6 | 8 | 3.6 | 9300 | -2 | -14
O=C(/C=C/c1ccc(S(=O)(=O)NCc2ccco2)cc1)NCc1ccccc1Cl | 3 | 2 | 1 | 1.9 | 1941 | 2 | -32
